VDR inhibitor: vitamin D3 receptor (human) inhibition; P11473; VDR-SRC2-3 peptide fluorescence polarization, 2 h; Potency, µM, for inactives: max response, negative = inhibition, hits mostly inhibitors; 0.93% of 400,000 active; active means well fitted inhibition curve with a large enough effect; inconclusive means small, poorly fitted or top-dose-only effect, or another doubt; inactive means no such curve, though single readings can be large or run the other way; further: series mostly up to about 120 µM
Target sequence (P11473 whole entry, looked up): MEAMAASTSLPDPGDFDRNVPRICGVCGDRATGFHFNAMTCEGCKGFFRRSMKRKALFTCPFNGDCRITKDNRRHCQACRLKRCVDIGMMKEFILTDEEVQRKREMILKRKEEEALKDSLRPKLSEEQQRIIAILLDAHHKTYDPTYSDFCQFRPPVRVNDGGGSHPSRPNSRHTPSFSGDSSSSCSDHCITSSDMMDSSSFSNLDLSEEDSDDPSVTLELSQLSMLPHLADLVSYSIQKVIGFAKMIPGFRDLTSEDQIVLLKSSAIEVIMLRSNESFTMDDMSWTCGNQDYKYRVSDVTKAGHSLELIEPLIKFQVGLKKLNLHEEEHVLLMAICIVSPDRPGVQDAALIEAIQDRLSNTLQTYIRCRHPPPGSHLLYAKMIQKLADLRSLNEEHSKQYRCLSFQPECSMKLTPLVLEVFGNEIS
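VDR–SRC2-3 interaction, FP format. Cmpds 23 nl via pintool, brief spin, 2 h ambient incubation.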
An asterisk follows results filed as active; ? = inconclusive; & = joins results of further samples. On the % scale 0 is the no-effect control and ±100 the full control effect; potency means the concentration at half of the fitted maximal effect. This is a subset; the hit share may differ from the screen's.

| compound | VDR inhibitor |
| --- | --- |
| CC(=O)c1ccc(N2CCN(C(=O)NCc3noc4ccc(C)cc34)CC2)cc1 | 12% |
| Cc1ccc(N2CC(C(=O)N3CCC(C(=O)Nc4ccc(Br)cc4)CC3)CC2=O)cc1 (centres undefined) | 6% |
| COCCCn1c(=N)c(C(=O)NC2CCCC2)cc2c(=O)n3cc(C)ccc3nc21 | 1% |
| CCOc1ccc(OCC)c(Nc2cc(C)nc3nc(-c4ccco4)nn23)c1 | -1% |
| CCC(NC(=O)/C(=C\c1ccc2c(c1)OCO2)NC(C)=O)C(=O)O (centres undefined) | 5% |
| Cc1ccc(C)c(S(=O)(=O)Nc2ccccc2C(=O)Nc2ccc(S(=O)(=O)Nc3ncccn3)cc2)c1 | -17% |
| COc1cccc(NC(=O)CCS(=O)(=O)c2cccs2)c1 | 11% |
| O=C(Nc1ccccc1Cl)[C@H](CSCc1ccccc1)N1Cc2ccccc2C1=O | -6% |
| Cc1cccc(C(=O)N2CCN(CCNC(=O)C(=O)Nc3ccc(F)cc3)CC2)c1 | 2% |
| CCN(CC)C(=O)CC(c1ccc(N(C)C)cc1)c1c(O)cc(OC)cc1OC (centres undefined) | ? |
| CS(=O)(=O)NN1C(=O)c2ccccc2NC1c1c[nH]c2ccccc12 (centres undefined) | -3% |
| O=C(CSc1ncccn1)Nc1ccc2[nH]c(=O)[nH]c2c1 | -22% |
| O=C(Oc1ccc(OC(=O)c2ccco2)c(S(=O)(=O)c2ccc(Br)cc2)c1)c1ccco1 | -2% |
| CCOc1ccc(C=NCC(O)c2ccccc2)cc1 (centres undefined) | -2% |
| CO/N=C/C1CCN(c2ncc(C(F)(F)F)cc2Cl)C1=O (centres undefined) | 12% |
| CCn1c(CC(=O)Nc2ccccc2F)nnc1SCC(=O)N1CCN(c2ccccc2)CC1 | -2% |
| O=C(c1cccc(N2C(=O)C3CC=CCC3C2=O)c1)N1CCN(c2ccccc2)CC1 (centres undefined) | -13% |
| O=Cc1c(NCCCN2CCCC2=O)c2ccccc2[nH]c1=O | -9% |
| O=C(N/N=C/c1cn(-c2ccccc2)nc1-c1cccs1)c1ccncc1 | -13% |
| C#CCOCCOCCOCCNc1nc(N2CCN(C(=O)CCCCCCCCCCNC(=O)[C@H](CCCCN)n3cc(CCCC(=O)O)nn3)CC2)nc(N2CCN(C(=O)CCCCCCCCCCNC(=O)[C@@H]([C@H](C)O)n3cc(C)nn3)CC2)n1 | -2% |
| COc1ccc(CCNC(=O)c2ccc3c(c2)nc2n3CCOC2)cc1OC | 1% |
| COc1ccc(C(C)=O)c(OC(=O)c2ccc(OC)c(OC)c2)c1 | 9% |
| CC(C)(OC(=O)c1ccc(F)cc1)c1cc2ccccc2c(=O)o1 | -15% |
| Cc1nnc2sc(-c3ccc(NC(=O)c4ccc(-c5ccc(Cl)cc5Cl)o4)cc3)nn12 | 8% |
| Cc1nc(C)c(C(=O)NCc2ccccc2Cl)o1 | -28% |

The listing continues.
| compound | VDR inhibitor |
| --- | --- |
| CN(C)C(=O)c1c([N+](=O)[O-])c(C(C)(C)C)nn1C | -10% |
| Brc1ccc(NC2=Nc3ccccc3CC2)cc1 | ? |
| O=C(NCCCn1ccnc1)c1cc(Br)c(Br)s1 | 4% |
| COc1cc(/C=N/Nc2nc(C)cc(=O)[nH]2)ccc1OC(=O)c1cccnc1 | -5% |
| Cn1c(=O)c2cn(-c3ccc4c(c3)OCCO4)cc2n(C)c1=O | 11% |
| CC1(c2ccc(Cl)cc2)NC(=O)CS1 (centres undefined) | -1% |
| CCc1cc(=O)oc2c3c(cc(OCC(=O)NCCCC(=O)O)c12)OC(C)(C)CC3 | -12% |
| Cc1ccc(CCNC(=O)C2CCC(=O)N2Cc2ccc(F)cc2)cc1 (centres undefined) | -20% |
| O=C(CCl)N(Cc1cc(=O)[nH]c2ccccc12)c1ccccc1 | -17% |
| O=C(Cn1c2ncccc2c(=O)n1-c1ccccc1)NCc1ccccc1 | -5% |
| C1CN(CCN2CCOCC2)CCN1 | 1% |
| O=S(=O)(Nc1cc(S(=O)(=O)N2CCOCC2)ccc1Cl)c1ccccc1 | 0% |
| CCCCn1c2ccccc2c2cc(CC(N)=O)ccc21 | 1% |
| COc1cc(/C=C2\C(=O)N(CCC#N)N=C2C)ccc1OCC(=O)Nc1ccccc1 | ? |
| C[C@H](CO)N1C[C@H](C)[C@@H](CN(C)C(=O)Nc2ccccc2)Oc2ccc(NC(=O)CCN3CCOCC3)cc2C1=O | 0% |
| CC(=O)Nc1ccc(C(=O)Nc2cc(C)on2)cc1 | -9% |
| CC(=O)Nc1ccc2c(c1)nc(C)n2-c1ccccc1 | 0% |
| C=CCn1c(C)cc(C(=O)COC(=O)/C=C/c2cccc(OC)c2)c1C | -13% |
| COC(=O)c1ccc(CNC(=O)c2ccc(OC)c(S(=O)(=O)NC3CCCC3)c2)cc1 | -19% |
| COC(=O)c1cc(Br)c(=O)n(Cc2cccnc2)c1 | 25% |
| CCN(C[C@H]1N[C@@](CC)(C(=O)OC)[C@H]2C(=O)N(C)C(=O)[C@@H]12)C(=O)COC | -11% |
| CCOc1ccc(NS(=O)(=O)c2ccc(C(=O)N3CCCCC3)cc2)cc1 | 20% |
| CC(C)n1ncc2c(C(=O)N3CCN(Cc4ccc(Br)s4)CC3)cc(C3CC3)nc21 | 4% |
| COc1cccc(-c2ccc3ncnc(N4CCN(C)CC4)c3c2)c1 | ? |
| COc1cc(NC(=O)CN2C(=O)C(c3ccccc3)=NC2(C)C)cc(OC)c1 | -4% |

Continued, overlapping the part above by 3 compounds.
| compound | VDR inhibitor |
| --- | --- |
| CC(C)n1ncc2c(C(=O)N3CCN(Cc4ccc(Br)s4)CC3)cc(C3CC3)nc21 | 4% |
| COc1cccc(-c2ccc3ncnc(N4CCN(C)CC4)c3c2)c1 | ? |
| COc1cc(NC(=O)CN2C(=O)C(c3ccccc3)=NC2(C)C)cc(OC)c1 | -4% |
| Cc1ccc(S(=O)(=O)N2CCN(C(=O)CNC(=O)c3ccc(Br)o3)CC2)cc1 | -4% |
| CCOc1ccccc1N1CCN(C(=O)C(Sc2ccccc2)c2ccccc2)CC1 (centres undefined) | -4% |
| Cc1cccc(CSCCNC(=S)Nc2ccccc2)c1 | -18% |
| Nc1cc(C(=O)N2CCN(c3ccc([N+](=O)[O-])cc3)CC2)ccc1N1CC2CC(C1)c1cccc(=O)n1C2 (centres undefined) | -5% |
| COc1cccc(C(=O)NCC(c2ccco2)N2CCc3ccccc3C2)c1 (centres undefined) | -10% |
| CCOC(=O)C1CSc2[nH]c(=O)sc2C1c1ccccc1 (centres undefined) | -15% |
| CN(C)c1nc(-c2ccccc2)ncc1S(=O)(=O)c1ccccc1 | -16% |
| Nc1sccc1C(=O)c1ccc(Cl)cc1 | -4% |
| Clc1ccc(Cl)c(OCCN2CCCC2)c1 | -6% |
| Cc1ccc(NC(=O)c2ccc(CSc3nnnn3C)cc2)cc1 | 28% |
| COc1ccc(C2CC(=O)Nc3cc(C)c(C)cc32)c(OC)c1OC (centres undefined) | 3% |
| N#C/C(=C\c1cccc(Oc2ccccc2)c1)C(=O)N1CCOCC1 | 45µM* |
| CC(C)NC(=O)COC(=O)c1ccc(NS(=O)(=O)c2ccc3c(c2)OCCO3)cc1 | 15% |
| Cc1cc(C)cc(NS(=O)(=O)c2coc(C(N)=O)c2)c1 | 2% |
| O=C1NC(=S)N/C1=C/c1ccc(Oc2ccc(C(F)(F)F)cc2[N+](=O)[O-])c(Cl)c1 | -11% |
| C=Cc1ccc(Cn2c(SCC(=O)N3CCN(c4ccc(F)cc4)CC3)nc3ccccc32)cc1 | -14% |
| O=C(Nc1ncc(Cc2ccccc2Cl)s1)c1ccc2c(c1)CC(c1ccccc1)OC2=O (centres undefined) | -3% |
| CCc1ccc(OCC(=O)Nc2ccc(N3CCN(S(C)(=O)=O)CC3)cc2)cc1 | -11% |
| COc1ccccc1NC(=O)c1ccc(CN2CCOCC2)cc1 | 9% |
| CN(C)C(CNC(=O)c1cc2ccccc2o1)c1ccccc1 (centres undefined) | -20% |
| COC(=O)c1ccc([C@@H](O)[C@H](C)C(=O)CC(=O)OC(C)(C)C)cc1 | -7%&-8% |
| CCOc1ccc2nc(Cl)c(C3CC(c4ccccc4)=NN3C(=O)CCC(=O)O)cc2c1 (centres undefined) | -2% |
| CC(C)(C)NC(=O)CN(Cc1ccc2c(c1)OCO2)C(=O)CNS(=O)(=O)c1ccccc1 | -29% |
| O=C(Nc1cc([N+](=O)[O-])ccc1F)C1CCN(S(=O)(=O)c2cccs2)CC1 | -6% |
| CCN1CCN(C(=O)c2ccc3c(c2)N(Cc2ccccc2F)C(=O)c2ccccc2S3(=O)=O)CC1 | 10%&17% |

(further entries)
| compound | VDR inhibitor |
| --- | --- |
| Cc1nc(N(C)C)c2sc(=S)n(-c3ccccc3)c2n1 | -14% |
| O=C(c1ccsc1)N1CCN(C(=O)c2cccs2)CC1 | 5% |
| C=CC(=O)N(CCC)C(c1ccccc1)c1ccccc1OC (centres undefined) | -7% |
| COc1ccc2[nH]c(C(=O)Nc3ccc(F)cc3Br)cc2c1 | -5% |
| COc1cccc(CNC(=O)CSc2nnc3c(n2)[nH]c2ccc(C)cc23)c1 | 4% |
| C/C(Nc1ccccc1C(F)(F)F)=C1/CCOC1=O | 0% |
| O=C1CCCC(=O)N1c1ccc(F)cc1 | -5% |
| S=C(NCc1ccco1)Nc1ccccc1 | 0% |
| COc1cccc(CNC(=O)c2cc(S(=O)(=O)N3CCCCC3)c[nH]2)c1 | -5%&11% |
| CS(=O)(=O)c1ccc(Cl)c(NC(=O)CSc2nnc(-c3cccs3)n2N)c1 | -21% |
| O=C(CCN1C(=O)COc2ccccc21)N1CCN(c2ccccc2)CC1 | -14% |
| Cc1nnc(SCC(=O)Nc2cccc(N)c2)n1-c1ccccc1 | -16% |
| COc1ccccc1C1CC(c2ccccc2)=NN1S(=O)(=O)c1ccccc1 (centres undefined) | -10% |
| O=C(Nc1cccnc1)OC1CCCC1 | 0% |
| O=S(=O)(c1ccc(F)cc1)N1CCN(Cc2ccccc2C(F)(F)F)CC1 | -3% |
| CN(C)C(CNS(=O)(=O)c1ccc(F)cc1)c1cccnc1 (centres undefined) | -12% |
| CCCC(=O)c1c[nH]c(C(=O)N2CCOCC2)c1 | 7% |
| CCN(C(=O)c1coc(=O)c2ccccc12)c1ccccc1C | -3% |
| O=C(Nc1cccc(F)c1)c1c(O)c2ccccc2[nH]c1=O | 1% |
| CC(NCc1ccccc1)C1COc2ccccc2O1 (centres undefined) | 1% |
| C=CCNC(=O)c1onc(CSc2ccc(F)cc2)c1C(=O)NCC=C | -21% |
| Cc1cccc(-n2c(C)cc(/C=C3\NC(=O)NC3=O)c2C)c1 | -9% |
| CC(C)CC(C(=O)Nc1oc(-c2ccccc2)c(-c2ccccc2)c1C#N)N1C(=O)c2ccccc2C1=O (centres undefined) | 3% |
| Cn1nnc2c(NCc3ccco3)nccc21 | 22% |
| CCn1cc(C(=O)N2CC(C)CC(C)C2)c(=O)c2cc(S(=O)(=O)N3CCOCC3)ccc21 (centres undefined) | 2% |

(further entries)
| compound | VDR inhibitor |
| --- | --- |
| Cn1c(=O)oc2cc(S(=O)(=O)N3CCCC(C(=O)NC4CCCc5ccccc54)C3)ccc21 (centres undefined) | -8% |
| CC1Cc2ccccc2N1C(=O)COC(=O)c1ccc(Br)o1 (centres undefined) | 7% |
| CC(=O)Nc1ccc(C2(c3ccc(NC(C)=O)cc3)C(=O)Nc3ccccc32)cc1 | 7% |
| O=C1CN(C(=O)COC(=O)CNC(=O)c2ccccc2)c2ccccc2N1 | -2% |
| CCc1ccc(-c2nc3c(=O)n(C)c(=O)nc-3n(CC)n2)cc1 | ? |
| COc1cccc(CCc2nnc(CCC(=O)NC(C)Cc3cccs3)o2)c1 (centres undefined) | 9% |
| COCCCNC(=O)CCc1c(C)c2cc3c(C)coc3cc2oc1=O | -7% |
| O=C(Nc1ccc(Cl)cc1)NN1CCCCCC1 | -12% |
| CCOC(=O)c1ccc(NC(=O)Nc2ccc3c(c2)OCCO3)cc1 | -20% |
| c1ccc(-c2nnc(-c3ccncc3)nc2-c2ccccc2)cc1 | -22% |
| NS(=O)(=O)c1ccc(Nc2nc3ccccc3nc2NS(=O)(=O)c2cccc([N+](=O)[O-])c2)cc1 | ? |
| O=C(NCCN1CCN(c2ccccc2)CC1)C1CCN(S(=O)(=O)c2cccc3nsnc23)CC1 | -15% |
| CN(C)C(=O)Cn1c(=O)n(S(=O)(=O)c2ccccc2)c2ccccc21 | 0% |
| CCOc1cc(C2NC(=O)NC(c3ccccc3)=C2C(=O)c2ccccc2)c(Br)cc1OCC(=O)O (centres undefined) | -18% |
| COc1cccc(NC(=O)c2c([N+](=O)[O-])cnn2C)c1 | -7% |
| CCOC(=O)N1CCN(C(=O)C2CCCCC2)CC1 | -2% |
| CC(=O)Nc1ccc(NC(=O)c2cc3sccc3n2Cc2ccc(F)cc2)cc1 | 10% |
| COc1ccc(NC(=O)CSc2nnc3scc(-c4ccc(Cl)cc4)n23)cc1 | 3% |
| CC1CCCN(C(=O)C2CCN(CC3CC=CCC3)CC2)C1 (centres undefined) | 9% |
| Cc1cccc(Nc2nnc(SCC(=O)c3c(N)n(C4CC4)c(=O)[nH]c3=O)s2)c1C | -9% |
| Cc1cc(C)c(NC(=O)Cn2nnc3sc4c(c3c2=O)CCC(C(C)(C)C)C4)c(C)c1 (centres undefined) | -5% |
| C[n+]1cccc(C(=O)NNC(=O)C23CC4CC(CC(C4)C2)C3)c1 | -6% |
| O=C(CSc1cn(Cc2ccccc2)c2ccccc12)NCc1ccc(F)cc1 | -9% |
| Cc1cc([N+](=O)[O-])nn1CC(=O)N1CCc2ccccc2C1 | -14% |
| O=C(NC1CCCCC1)c1cc(-c2cccs2)on1 | 13% |
| Cc1ccc2sc(N(CCCN(C)C)C(=O)c3ccc(S(=O)(=O)N4CCOCC4)cc3)nc2c1C | 0% |
| CN(C)S(=O)(=O)c1cccc(-c2nnc(SCc3ccc4c(c3)OCCO4)o2)c1 | 3% |
| Cc1cc(=O)oc2c(C(=O)/C=C\c3cccs3)c(O)ccc12 | ? |

Screens as filed in PubChem BioAssay.
